# FGF22 binding = binders of recombinant human FGF22 by thermal shift | Q9HCT0 | SYPRO orange fluorescence; percent of sucrose octasulfate shift, DMSO zero | calls only at 9.99 µM | 1.5% of 340,000 active | AID 651658;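 active means melting point raised past a set limit in the mean and every replicate; three in four hits are not shown here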
# Target sequence (Q9HCT0 whole entry, looked up): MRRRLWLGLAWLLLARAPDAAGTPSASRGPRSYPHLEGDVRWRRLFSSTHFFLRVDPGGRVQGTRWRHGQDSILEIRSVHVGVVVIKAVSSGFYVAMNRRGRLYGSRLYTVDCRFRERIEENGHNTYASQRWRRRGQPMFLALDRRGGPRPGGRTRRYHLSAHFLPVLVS
# rRNA inh HTS = selective bacterial rRNA inhibition in E. coli; 1.6% of 350,000 active; E. coli WT GFP vs humanized-ribosome RFP mutants, fluorescence, 24 h; stronger effect = lower value; DMSO median 0, no signal -100; GFP signal change (wild-type ribosome), % (no concentration beside the values);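 active means significant combined selectivity score with lowered wild-type GFP, culture density cut under 30%, mutant RFP and density less affected; inactive means any of these conditions unmet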; further: one replicate is shown; some compounds called inactive have numbers as strong as hits
# AF4-AF9 inh = inhibitors of human MLL-AF4/AF9 interaction | P42568 | AlphaScreen, biotin-AF4 peptide binding to FLAG-AF9 | inhibition, % at 10 µM | 0.47% of 350,000 active;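 active means every replicate reaching a set inhibition limit, whatever the replicate mean, cut at about 25% in these data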;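 further: 0% = plate neutral control median and 100% = total signal loss; the record names both 10 and 1 µM as test concentration; the first replicate is given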
# Target sequence (P42568 whole entry, looked up): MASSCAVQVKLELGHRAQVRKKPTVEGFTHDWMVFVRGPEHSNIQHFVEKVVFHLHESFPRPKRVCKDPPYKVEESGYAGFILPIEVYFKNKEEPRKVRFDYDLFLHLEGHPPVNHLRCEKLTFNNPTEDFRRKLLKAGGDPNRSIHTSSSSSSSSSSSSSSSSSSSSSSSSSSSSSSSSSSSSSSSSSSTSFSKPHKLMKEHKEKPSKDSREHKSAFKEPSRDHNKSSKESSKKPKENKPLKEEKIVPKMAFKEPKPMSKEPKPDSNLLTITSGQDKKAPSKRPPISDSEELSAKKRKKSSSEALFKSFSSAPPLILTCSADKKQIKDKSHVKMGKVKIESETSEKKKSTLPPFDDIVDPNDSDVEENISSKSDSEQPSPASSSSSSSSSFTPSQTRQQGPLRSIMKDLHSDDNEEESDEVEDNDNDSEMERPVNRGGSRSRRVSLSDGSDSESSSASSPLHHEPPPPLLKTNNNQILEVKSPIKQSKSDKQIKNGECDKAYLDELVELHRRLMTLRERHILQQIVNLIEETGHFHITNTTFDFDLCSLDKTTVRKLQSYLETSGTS
# rRNA inh HTS OD600 = recorded beside rRNA inh HTS, whose call it bears; OD600 change, %; measured here: OD600 growth;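 optical density of the mix in the first replicate; 0 = DMSO median and -100 = no signal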
# rRNA inh HTS RFP = further read-out of rRNA inh HTS, marked with its call; RFP signal change, %; measured here: RFP humanized mutant strains;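 first replicate; 0 = DMSO median and -100 = no signal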
# Numbers without * were called inactive; i = inactive. An excerpt. The share of hits here may be higher or lower than overall.
SMILES,FGF22 binding,rRNA inh HTS,rRNA inh HTS OD600,rRNA inh HTS RFP,AF4-AF9 inh
C[C@@H]1CN([C@H](C)CO)C(=O)Cc2cc(NS(=O)(=O)c3ccccc3)ccc2O[C@@H]1CN(C)C,i,4.4,8.5,-3.4,-8.1
CC(=O)N(C)C[C@@H]1Oc2cc(C#CC3CCCC3)ccc2S(=O)(=O)N([C@@H](C)CO)C[C@@H]1C,i,6.8,-5.8,3.7,1.6
OCc1ccccc1-c1nc(NCc2ccccc2)nc2ccsc12,i,17.3,19.6,-2.3,-8.5
Cc1ccc(S(=O)(=O)N2CC[C@@H]3[C@H]2c2cc(-c4cccc(C#N)c4)ccc2N(C)[C@H]3CO)cc1,i,0.1,-1.0,0.4,11.5
COc1cccc(NC(=O)Nc2ccc3c(c2)C(=O)N(C)C[C@H](OC)[C@@H](C)CN[C@@H](C)CO3)c1,i,-0.3,3.0,0.8,9.7
Cc1ccc(S(=O)(=O)Nc2ccc3c(c2)CC(=O)N([C@@H](C)CO)C[C@@H](C)[C@H](CN(C)C(=O)Nc2ccc4c(c2)OCO4)O3)cc1,i,2.1,4.4,-2.7,0.4
COc1cccc(CNC(=O)C[C@H]2C=C[C@H](NC(=O)C3CC3)[C@@H](CO)O2)c1,i,1.0,8.8,0.2,-0.8
C[C@H]1CN([C@@H](C)CO)C(=O)Cc2cc(NC(=O)Nc3ccc(F)cc3)ccc2O[C@H]1CN(C)C(=O)Nc1cccc2ccccc12,i,-1.5,-3.4,-0.6,-1.9
CC1CCCCC12NC(=O)N(CC(=O)Nc1ccc3c(c1)OCO3)C2=O (stereo not given),i,4.0,16.5,-2.6,0.2
C[C@H](CO)N1C[C@H](C)[C@H](CN(C)CC2CCCCC2)Oc2ccc(NC(=O)c3ccncc3)cc2CC1=O,i,2.8,1.9,-0.2,-0.9
CC=Cc1ccc2n(c1=O)C[C@H]1[C@H](CO)[C@@H](C(=O)NCC3CC3)[C@@H]2N1Cc1ccccc1 (mixture of isomers),i,-1.5,-7.9,-0.9,-14.9
CC(=O)N1CCN(C(=O)c2cc3c(s2)CCC(C)C3)CC1 (stereo not given),i,-5.1,2.1,-5.8,-0.2
C[C@@H]1CN([C@H](C)CO)C(=O)c2cc(-c3ccccc3)cnc2O[C@@H]1CN(C)C(=O)Nc1ccccc1F,i,-0.5,3.1,-2.5,-18.0
CCCC(=O)Nc1ccc2c(c1)C(=O)N(C)C[C@H](OC)[C@H](C)CN(Cc1cccc(F)c1)[C@H](C)CO2,i,-2.3,-1.0,0.9,-1.9
CCOC(=O)C1(C)CCN1C(=O)c1ccc(Cl)nc1 (stereo not given),i,13.6,10.8,-0.6,3.0
C[C@@H]1CN([C@@H](C)CO)C(=O)c2cc(-c3cncnc3)cnc2O[C@@H]1CN(C)C(=O)CN1CCOCC1,i,3.0,10.1,0.7,-2.1
C[C@@H]1CN([C@H](C)CO)C(=O)c2cccc(NC(=O)NC3CCCCC3)c2O[C@@H]1CN(C)Cc1ccc(Oc2ccccc2)cc1,i,-9.0,-16.9,1.0,3.1
COc1cccc(C(C)(O)c2nc(-c3ccc(C)c(C)c3)cs2)c1 (stereo not given),i,-44.1,-69.4,-7.0,-1.2
Cc1ccc(Cc2c(-c3ccccc3)nc3ccc(Cl)cn23)cc1,i,-26.9,-29.6,-1.4,-0.7
CN1CCCCN2[C@H](CO)[C@@H](c3ccc(Br)cc3)[C@@H]2C1,i,3.8,7.7,-1.1,4.7
C[C@H](CO)N1C[C@H](C)[C@H](CN(C)C(=O)Nc2cccc3ccccc23)Oc2ccc(NC(=O)Nc3ccccc3)cc2C1=O,i,2.7,-1.1,2.6,-0.5
OC1C2CCC(C2)C1CN1CCOCC1 (stereo not given),i,11.6,12.7,0.6,-0.4
Cc1noc(C)c1NC(=O)N(C)C[C@H]1OCc2ccccc2-c2ccccc2C(=O)N([C@@H](C)CO)C[C@@H]1C,i,1.7,3.4,-1.1,-2.7
O=C(NC1CC1)c1ccccc1NC(=O)c1ccccc1OC(F)F,i,-0.9,-5.8,5.2,-1.1
C[C@H](CO)N1C[C@H](C)[C@H](CN(C)Cc2ccc(Cl)c(Cl)c2)Oc2c(NC(=O)Nc3ccc(F)cc3)cccc2C1=O,i,-1.3,-25.5,-2.1,3.4
SMILES,FGF22 binding,rRNA inh HTS,rRNA inh HTS OD600,rRNA inh HTS RFP,AF4-AF9 inh
C[C@H](CO)N1C[C@H](C)[C@@H](CN(C)C(=O)c2ccccc2F)Oc2ncc(C#Cc3ccc(F)cc3)cc2C1=O,i,-6.6,-43.0,24.2,2.5
CC1(C(=O)NCc2cccs2)Cc2c(-c3ccc(C(N)=O)cc3)ccnc2O1 (stereo not given),i,8.7,2.9,-0.3,0.7
C[C@@H]1CCCCO[C@@H](CN(C)Cc2ccccc2)[C@H](C)CN([C@H](C)CO)C(=O)c2cc(NC(=O)Nc3cccc4ccccc34)ccc2O1,i,-1.8,-16.7,8.0,14.1
CC(C)CC#Cc1cnc2c(c1)C(=O)N([C@@H](C)CO)C[C@@H](C)[C@H](CN(C)C(=O)NC1CCCC1)O2,i,4.6,3.8,-3.5,-1.9
CCNC(=O)C[C@H]1CC[C@H]2[C@H](COc3ccc(NC(=O)Nc4ccc(C)cc4)cc3C(=O)N2C)O1,i,-1.9,-2.2,-3.1,-0.6
CC(C)c1cc(Cn2c3ccccc3c(=O)n2C(C)C)on1,i,11.8,8.2,1.9,-1.9
Cc1ccc(C)c(N2N=C(C(=O)OCC(=O)N(C)c3ccccc3)CCC2=O)c1,i,2.1,1.4,-0.4,2.3
COc1ccc(NC(=O)c2cc(-c3cc(Cl)ccc3C)n[nH]2)c(OC)c1,i,-1.8,-16.7,-8.7,-0.1
OCC1OC(n2ccc3c(NO)ncnc32)C(O)C1O (stereo not given),i,-1.8,13.6,-3.3,-1.8
COCC(=O)Nc1ccc2c(c1)C(=O)N(C)C[C@H](OC)[C@@H](C)CN(C(=O)c1cccnc1)[C@@H](C)CO2,i,0.9,6.4,4.0,0.6
COc1ccc(NC(=O)Nc2ccc3c(c2)C(=O)N([C@@H](C)CO)C[C@H](C)[C@@H](CN(C)C(=O)Nc2c(C)noc2C)OCCCC[C@H](C)O3)cc1,i,-2.2,-0.2,0.1,2.9
Cc1ccc(S(=O)(=O)N(C)C[C@@H]2Oc3cc(C#CC4CCCC4)ccc3S(=O)(=O)N([C@H](C)CO)C[C@@H]2C)cc1,i,-0.8,-14.1,-1.1,0.2
O=C(N[C@@H]1CC[C@@H](CCn2cc(C3(O)CCCC3)nn2)O[C@H]1CO)C1CCCC1,i,2.2,1.9,3.9,-1.1
CCC(=O)N1C[C@H](C)[C@H](OC)CN(C)C(=O)c2ccc(NC(=O)c3ccc(F)cc3)cc2OC[C@H]1C,i,-1.6,3.0,1.2,-0.9
OC[C@@H]1[C@@H](c2ccccc2)C2(CN(Cc3nccs3)C2)N1Cc1cccnc1,i,0.6,0.9,0.8,9.5
CC(C)CC#Cc1ccc2c(c1)O[C@H](CN(C)C(=O)NC(C)C)[C@@H](C)CN([C@@H](C)CO)S2(=O)=O,i,2.6,-17.4,1.9,-0.6
CCCC#Cc1cnc2c(c1)C(=O)N([C@@H](C)CO)C[C@H](C)[C@@H](CN(C)C(=O)C1CCOCC1)O2,i,1.6,4.0,-2.6,-4.5
CCCC(=O)N1CCC2(CC1)CN(Cc1cccnc1)[C@H](CO)c1[nH]c3cc(OC)ccc3c12,i,3.0,0.1,6.9,0.4
COC(=O)C[C@@H]1C[C@H]2c3cc(NC(=O)C4CCC4)ccc3O[C@H]2[C@H](CO)O1,i,0.9,3.8,-1.1,-0.5
O=C(NCc1ccncn1)[C@H]1[C@H](CO)[C@H]2Cn3c(ccc(-c4cccc(F)c4)c3=O)[C@H]2N1CC1CC1,i,-0.6,4.5,4.5,11.0
O=C(C[C@H]1CC[C@@H]2[C@H](COC[C@H](O)CN2C(=O)Nc2cc(Cl)cc(Cl)c2)O1)N1CCCCC1,i,-49.5,-67.1,-17.3,1.7
COCCN(C(=O)COC(=O)CCOc1cc(C)ccc1C)c1c(N)n(Cc2ccccc2)c(=O)[nH]c1=O,i,11.7,2.6,-9.2,1.8
CC(C)C[C@@H](CN1CCC[C@@H]1CN1C(=S)NC[C@@H]1Cc1ccc(O)cc1)N1C[C@H](Cc2ccc(O)cc2)N(CCc2ccccc2)C1=S,i,9.2,14.6,17.2,1.9
C/C=C/c1ccc2c(c1)O[C@@H](CN(C)C)[C@@H](C)CN([C@H](C)CO)S2(=O)=O,i,-0.7,5.9,-0.2,-1.1
COc1ccc(CN(C)C[C@H]2Oc3ccc(NS(=O)(=O)c4ccc(OC)cc4)cc3C(=O)N([C@H](C)CO)C[C@H]2C)cc1,i,1.3,2.4,3.5,2.1

# Full records as entered above. Order of values: FGF22 binding | rRNA inh HTS | rRNA inh HTS OD600 | rRNA inh HTS RFP | AF4-AF9 inh
# COC(=O)C[C@@H]1C[C@H]2c3cc(NC(=O)C4CCC4)ccc3O[C@H]2[C@H](CO)O1 across the screens: i | 0.9 | 3.8 | -1.1 | -0.5
# CC(C)c1cc(Cn2c3ccccc3c(=O)n2C(C)C)on1 across the screens: i | 11.8 | 8.2 | 1.9 | -1.9
# COc1ccc(NC(=O)Nc2ccc3c(c2)C(=O)N([C@@H](C)CO)C[C@H](C)[C@@H](CN(C)C(=O)Nc2c(C)noc2C)OCCCC[C@H](C)O3)cc1 across the screens: i | -2.2 | -0.2 | 0.1 | 2.9
# CC1(C(=O)NCc2cccs2)Cc2c(-c3ccc(C(N)=O)cc3)ccnc2O1 (stereo not given) across the screens: i | 8.7 | 2.9 | -0.3 | 0.7

# (continued)
SMILES,FGF22 binding,rRNA inh HTS,rRNA inh HTS OD600,rRNA inh HTS RFP,AF4-AF9 inh
C[C@@H]1CN([C@H](C)CO)C(=O)c2ccccc2-c2ccccc2CO[C@H]1CN(C)C(=O)CCN(C)C,i,4.7,6.7,-1.8,-2.8
C[C@@H]1CN([C@H](C)CO)C(=O)c2cccc(NC(=O)NC3CCCCC3)c2O[C@H]1CN(C)S(=O)(=O)c1ccc(Cl)cc1,i,-10.5,-6.0,0.4,0.0
COc1cccc(NC(=O)N[C@@H]2CC[C@@H](CC(=O)N3CCCCC3)O[C@H]2CO)c1,i,4.5,-0.9,-2.2,6.8
C=Cc1ccc(Cn2c(C)c(C(=O)NCCC#N)sc2=O)cc1,i,2.4,17.8,20.8,1.0
Cc1ccc(S(=O)(=O)N(C)C[C@H]2Oc3ccc(NC(=O)c4ccncc4)cc3C(=O)N([C@@H](C)CO)C[C@H]2C)cc1,i,-0.2,6.5,2.4,-1.0
CC1(C)NC(=O)N(CC(=O)OCC(=O)N2CCN(S(=O)(=O)c3ccccc3)CC2)C1=O,i,1.0,-1.3,-0.8,0.8
O=C(C[C@H]1C=C[C@H](NC(=O)c2cnccn2)[C@H](CO)O1)NCc1ccccc1F,i,-2.3,3.3,0.6,-0.9
C/C=C/c1ccc2c(c1)O[C@H](CN(C)C(=O)c1ccccn1)[C@H](C)CN([C@@H](C)CO)S2(=O)=O,i,1.3,-2.8,-4.9,-2.6
O=C(C[C@@H]1CC[C@@H]2[C@H](COC[C@H](O)CN2CCC(F)(F)F)O1)NCc1ccc(Oc2ccccc2)cc1,i,-27.7,-65.2,4.9,1.5
Cc1cc(C(=O)Nc2cccc3c2O[C@H](CN(C)Cc2ccc(C(=O)Nc4ccccc4N)cc2)[C@H](C)CN([C@@H](C)CO)C3=O)n(C)n1,i,1.4,2.8,-5.1,12.3
O=C(NC(CO)C(=O)OCc1ccccc1)OCc1ccccc1 (stereo not given),i,5.8,9.3,-2.9,-5.0
CN1c2ccc(C#Cc3cccnc3)cc2[C@@H]2[C@@H](CCN2C(=O)C2CC2)[C@H]1CO,i,-7.3,-8.4,5.4,-0.5
CCOc1ccc(C(=O)OCC(=O)Nc2cc(S(=O)(=O)N3CCOCC3)ccc2N2CCOCC2)cc1,i,10.9,3.7,3.9,-12.2
C[C@H](CO)N1C[C@H](C)[C@@H](CN(C)C(=O)Nc2ccccc2F)Oc2cc(-c3ccccc3)ccc2S1(=O)=O,i,-5.5,-17.3,2.6,0.3
C[C@H](CO)N1C[C@H](C)[C@H](CN(C)C(=O)Nc2ccc(C(F)(F)F)cc2)OCCCC[C@H](C)Oc2ccc(NC(=O)Nc3ccc(F)cc3)cc2C1=O,i,3.4,8.5,-2.1,-3.7
O=C(C[C@H]1CC[C@H]2[C@@H](COC[C@@H](O)CN2Cc2cc(F)cc(F)c2)O1)NC1CCCC1,i,2.1,4.4,0.2,-0.9
O=C(Nc1c(Cl)ccc2nsnc12)c1ccc(Br)o1,i,-1.4,-1.0,-5.9,-1.0
O=C(NN(Cc1ccccc1)Cc1ccccc1)c1ccccc1,i,12.0,7.6,1.7,-6.8
Cc1nn(C)cc1NC(=O)C[C@H]1CC[C@H]2[C@H](COc3ccc(NC(=O)c4cccc(F)c4)cc3C(=O)N2C)O1,i,2.2,2.9,-0.2,-8.2
Cc1cc(C(=O)Nc2cccc3c2O[C@H](CN(C)Cc2ccc(C(=O)O)cc2)[C@@H](C)CN([C@@H](C)CO)C3=O)n(C)n1,i,2.5,-1.9,0.4,-1.2
Nc1nc(N)c2ncn(C3C=CC(CO)C3)c2n1 (stereo not given),i,15.8,16.6,0.4,0.4
Cn1c(NCc2ccccc2)nc2cc(-c3ccccc3)sc2c1=O,i,13.1,17.9,5.4,-0.3

# From PubChem BioAssay
